# Screens deposited in PubChem BioAssay by National Center for Advancing Translational Sciences (NCATS).
# Six1-Eya2 inh: qHTS Assay for Inhibitors of the Six1/Eya2 Interaction. Homeobox protein SIX1 (Homo sapiens) + Protein phosphatase EYA2 (Homo sapiens), …. AlphaScreen GST-Six1/His-Eya2 binding, biochemical; active compounds read low; control for the full effect not named in the record. activity change, % (concentration not given with the values). 360,000 tested, 0.56% active. AID 651725, 2012; in the data active = activity change below about -65%; inconclusive = about -30% to -65%; inactive = above about -30%; also: % is scaled to controls: 0 for no effect and ±100 for the full control effect
#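 Six1/Eya2 binding was read as AlphaScreen signal after compounds were pinned into GST-Six1 plus His-tagged Eya2 (5X stock 250/500 nM) in pH 8.0 Tris/NaCl/TCEP buffer, beads added, then incubated 1 h, 37 C, dark.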
# PINK1 modulator: A Quantitative High throughput Screen to Identify Chemical Modulators of PINK1 Expression | PINK1 immunofluorescence, high-content cytometry, 24 h | Potency, µM (titrated, usually from 76.6 µM), for inactives: at the highest dose activation (PINK1 increase), hits mostly activators | 410,000 tested, 0.2% active; active = well fitted activation curve with a large enough effect; inconclusive = small, poorly fitted or top-dose-only effect; inactive = flat fitted curve, though single readings scatter; cell line not stated here;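 also: potency is read from the fitted curve at half-maximal effect; % of control where 0% means no effect; nearly all actives have a fitted effect of over 65% in size; a mitochondrial uncoupler was the plate control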
#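 Measures PINK1 amount and localization on or inside mitochondria by immunofluorescence. Stable cells get compounds at 5 concentrations for 24 hours before fixation and staining; CCCP controls included.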
# D2 ag: Beta-Arrestin HTS for Positive Allosteric Modulators of the Human D2 Dopamine Receptor: Agonists | D(2) dopamine receptor (Homo sapiens), P14416 | DiscoveRx PathHunter D2 beta-arrestin, luminescence, 90 min; 100% = 57 uM dopamine signal | activation, % (no concentration beside the values) | 360,000 tested, 0.084% active | AID 624465, 2012; in the data active = activation above about 40%; inconclusive = about 15% to 40%; inactive = below about 15%; also: compound concentration not given in the record; the text of the record calls up to 30% inactive
# Target sequence (P14416 whole entry, looked up): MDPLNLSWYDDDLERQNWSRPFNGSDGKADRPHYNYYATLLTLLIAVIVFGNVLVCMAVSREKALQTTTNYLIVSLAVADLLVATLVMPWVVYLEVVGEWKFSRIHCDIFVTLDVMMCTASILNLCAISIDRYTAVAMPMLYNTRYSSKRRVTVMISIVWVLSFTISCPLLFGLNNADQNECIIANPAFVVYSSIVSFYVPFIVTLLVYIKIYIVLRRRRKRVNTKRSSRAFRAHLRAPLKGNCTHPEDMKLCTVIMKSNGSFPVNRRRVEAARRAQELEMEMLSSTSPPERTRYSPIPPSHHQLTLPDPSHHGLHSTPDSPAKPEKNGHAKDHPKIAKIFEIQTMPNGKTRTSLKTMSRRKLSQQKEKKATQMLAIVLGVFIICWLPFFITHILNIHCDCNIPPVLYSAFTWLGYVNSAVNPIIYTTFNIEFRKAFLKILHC
#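 DiscoveRx PathHunter D2 beta-arrestin cells (2,100/well) attached overnight, then compound-stimulated 90 min at 37 C in HBSS/10 mM HEPES/0.1% Tween-20 buffer; beta-galactosidase complementation read by luminescence after 1 h at ambient temperature. Dopamine 57 uM final (EC100) as control.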
# TRPML1 inh: qHTS for Inhibitors of the Human Mucolipin Transient Receptor Potential 1 (TRPML1) | Mucolipin-1 (Homo sapiens), Q9GZU1 | TRPML1-inducible cells, Ca2+ dye fluorescence, FDSS; active compounds read low; inhibition of EC80 agonist-evoked calcium signal | activity change, negative = inhibition, % (no concentration beside the values) | 390,000 tested, 0.02% active | AID 624415, 2012; in the data active means activity change below about -50%; inconclusive means about -30% to -50%; inactive means above about -30%;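 also: stimulus is agonist 54-4 at its EC80 concentration; % is scaled to controls: 0 for no effect and ±100 for the full control effect; compound concentration not given in the record; the text of the record puts the active cut at -80%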
# Target sequence (Q9GZU1 whole entry, looked up): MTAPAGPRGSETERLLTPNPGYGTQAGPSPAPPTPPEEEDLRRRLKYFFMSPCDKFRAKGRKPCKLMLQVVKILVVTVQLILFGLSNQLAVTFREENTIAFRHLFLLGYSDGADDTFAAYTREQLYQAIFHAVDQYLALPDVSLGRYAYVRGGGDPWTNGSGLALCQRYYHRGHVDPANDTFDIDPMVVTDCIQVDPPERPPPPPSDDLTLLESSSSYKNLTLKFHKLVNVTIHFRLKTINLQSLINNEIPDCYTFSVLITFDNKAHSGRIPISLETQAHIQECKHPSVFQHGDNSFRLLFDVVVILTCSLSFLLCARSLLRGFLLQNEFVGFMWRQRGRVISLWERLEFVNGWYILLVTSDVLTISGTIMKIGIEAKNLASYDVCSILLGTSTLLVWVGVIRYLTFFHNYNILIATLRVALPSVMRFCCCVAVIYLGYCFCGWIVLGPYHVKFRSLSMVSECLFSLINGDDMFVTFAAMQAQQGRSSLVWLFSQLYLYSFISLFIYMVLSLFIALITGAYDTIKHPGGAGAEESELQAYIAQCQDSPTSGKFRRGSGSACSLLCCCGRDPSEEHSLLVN
#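 Tet-induced TRPML1-DL cells loaded with Ca8 no-wash calcium dye were read kinetically on FDSS. Compound addition was followed by EC80 agonist 54-4 (4 uM final); inhibition was read over 110 s.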
# TRPML1 agonist: qHTS for Agonists of the Human Mucolipin Transient Receptor Potential 1 (TRPML1). Mucolipin-1 (Homo sapiens), Q9GZU1. AID 624414, 2012. 410,000 tested, 0.12% active. activation, % (test concentration not listed). TRPML1-expressing cells, Ca2+ dye fluorescence, FDSS; host cell line not named in the record; reference of the full effect not given here; in the data active = activation above about 50%; inconclusive = about 30% to 50%; inactive = below about 30%; also: 0% is about no effect; the text of the record puts the active cut at 80%
#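 Tetracycline-induced TRPML1-DL cells are seeded and incubated overnight before loading with a no-wash Ca2+ dye and quencher. Agonist activity is taken from the 110 s fluorescence read following compound pin-transfer on an FDSS, before EC80 54-4 challenge.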
# D2 PAM: Beta-Arrestin HTS for Positive Allosteric Modulators of the Human D2 Dopamine Receptor: Potentiators | AID 624464, 2012 | 360,000 tested, 0.23% active | DiscoveRx D2 beta-arrestin cells, luminescence, 90 min; 100% = 57 uM dopamine signal | potentiation, % (no concentration beside the values) | D(2) dopamine receptor (Homo sapiens), P14416; active = potentiation of 50% or more; inconclusive = 30% to 50%; inactive = 30% or less;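 also: compound concentration not given in the record; tested on top of an EC20 dose of dopamine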
#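 PathHunter D2 cells, attached overnight at 37 deg C, received compound in DMSO plus dopamine at EC20 (50 nM final) for 90 min at 37 deg C. Beta-arrestin recruitment was read as luminescence after 1 h with detection reagent at ambient temperature.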
# The depositor's hits bear a star; ? = inconclusive; / = not tested or not shown; & = joins results of further samples; [ ] = dose if it differs, or a comment.
SMILES,Six1-Eya2 inh,PINK1 modulator,D2 ag,TRPML1 inh,TRPML1 agonist,D2 PAM
COCCOC(=O)/C=C1/NC(=O)CS1,5,-0.5%,-3.9,-18,0.2,-7
COC(=O)N/N=C/c1cc(Cl)c(OCc2ccccc2F)c(OC)c1,0,4.7%,-0.8,14,3.2,9
O=C(c1ccc(F)cc1)N1CCCC(c2ccccc2)C1 (configuration not stated),-1,-1.0%,-2.9,22,1.5,-6
Cc1ccccc1NC(=O)CN1C(=O)c2ccccc2C1=O,7,-2.2%,4.6,-13,0.4,0
COC(=O)c1c(-c2ccsc2)sc2ccc(-c3cc(OC)c(OC)c(OC)c3)cc12,-11,-1.2%,1.3,6,3.8,-14
COCCNC(=O)C1(C)CCCN(C(=O)c2ccc(OC)cc2OC)C1 (configuration not stated),2,4.0%,-4.6,15,0.0,-9
O=c1[nH]c(=S)[nH]c2c1C(c1ccc(F)cc1)OC(CCOCc1ccccc1)C2 (configuration not stated),1,1.4%,-1.1,5,-0.2,-8
CC(C)c1nc2cc3ccccc3cc2[nH]1,-5,-1.2%,-2.3,3,-0.3,3
Clc1cc(Cl)cc(CSc2nnc(-c3sccc3-n3cccc3)o2)c1,7,5.9%,-0.5,7,2.7,-4
Cc1cc(C)nc(NCCC(=O)O)n1,1,1.1%,-3.9,-2,0.4,4
Cc1ccc(S(=O)(=O)Cc2nnnn2-c2ccccc2)cc1,2,2.4%,-4.9,-1,-0.2,-13
CC(=O)Oc1ccc(C(=O)Nc2cccc(C(=O)c3cccc(NC(=O)c4ccc(OC(C)=O)cc4)c3)c2)cc1,?,?,2.1,-22,0.0,-15
Cc1cccc(NC(=O)c2nc[nH]c2C(=O)Nc2ccccc2[N+](=O)[O-])c1,-8,15%,-5.3,5,0.9,-3
Cc1c(/C(O)=C2\C(=O)C(=O)N(CCN(C)C)C2c2cccs2)cnn1-c1ccccc1 (configuration not stated),3,-0.5%,-1.6,-7,-0.4,-8
CCCNc1nc(-c2cc(-c3ccc(Cl)cc3)on2)cc(C(C)C)n1,7,-1.4%,-3.7,-7,-1.0,-6
O=C1C=C(N2CCOCC2)CO1,1,1.6%,-0.3,-6,-0.2,-5
COc1ccc(C2=NN(C(=O)CSc3nc(=O)n4ccc(C)cc4n3)C(c3ccc(C)cc3)C2)cc1 (configuration not stated),0,1.9%,-2.1,-6,1.4,-7
O=C(C1CCCCN1S(=O)(=O)c1ccccc1[N+](=O)[O-])N1CCCCC1 (configuration not stated),2,0.4%,-7.0,-3,-0.5,-3
CCOc1ccc(C2C3=C(CCCC3=O)OC(N)=C2[N+](=O)[O-])cc1 (configuration not stated),5,0.6%,-4.8,5,-0.1,-5
CC(=O)c1ccc(NC(=S)Nc2cccc(Cl)c2C)cc1,-1,0.1%,-5.3,9,1.8,-3
CCN(CC)S(=O)(=O)c1ccc(OC)c(NC(=O)CCc2c(C)noc2C)c1,-1,0.7%,-1.9,21,-1.6,-1
COc1cc(CN2CCCC(C(=O)N3CCc4ccccc4C3)C2)cc(OC)c1OC (configuration not stated),-1,2.4%,-0.6,22,0.8,-34
CCOC(=O)N1CCN(C(=O)COc2ccc3oc4c(c3c2)CCCC4)CC1,-10,1.0%,2.0,1,3.0,10
CC(=O)OC12CC3CC(C1)C(=NO)C(C3)C2,-1,0.3%,-1.7,12,-0.2,-5
CC(=O)Nc1ccc(S(=O)(=O)NCC2CCC(C(=O)N3CCCCCC3)CC2)cc1 (configuration not stated),0,0.9%,0.7,-10,-0.4,12

# A section from the list above, for reference:
SMILES,Six1-Eya2 inh,PINK1 modulator,D2 ag,TRPML1 inh,TRPML1 agonist,D2 PAM
Cc1ccccc1NC(=O)CN1C(=O)c2ccccc2C1=O,7,-2.2%,4.6,-13,0.4,0
COC(=O)c1c(-c2ccsc2)sc2ccc(-c3cc(OC)c(OC)c(OC)c3)cc12,-11,-1.2%,1.3,6,3.8,-14
COCCNC(=O)C1(C)CCCN(C(=O)c2ccc(OC)cc2OC)C1 (configuration not stated),2,4.0%,-4.6,15,0.0,-9

# Additional entries follow.
SMILES,Six1-Eya2 inh,PINK1 modulator,D2 ag,TRPML1 inh,TRPML1 agonist,D2 PAM
Cn1c(=O)c(=O)n(C)c2cc(N3CCOCC3)c(NS(=O)(=O)c3ccc(F)c(Cl)c3)cc21,-1,-0.2%&0.9%,-4.3,13&-2,-1.0&1.0,-4
O=C1CCN(c2ccccc2)N1,1,-2.8%,-1.7,1,-0.5,-25
Cc1ccc(-c2nc3ncccc3o2)cc1NC(=O)c1ccc(-c2cccc(Cl)c2C)o1,/,1.4%,/,-1,-0.6,/
CCn1c(=N)c(C(=O)NC2CCCC2)cc2c(=O)n3ccccc3nc21,/,1.0%,/,41,-0.9,/
Cc1ccc(NC(=O)CN2c3ccccc3S(=O)(=O)c3ccccc32)cc1F,/,1.5%,/,-12,-0.5,/
CCOC(=O)C1=CN(Cc2ccc(Br)cc2)S(=O)(=O)NC1C (configuration not stated),17,0.1%,1.5,-3,0.5,5
CCNC(=O)/C(C#N)=C/c1c(N2CCN(c3ccc(OC)cc3)CC2)nc2c(C)cccn2c1=O,?,1.3%,-1.1,3,1.1,-4
COc1cc(CN2CCC(C(=O)NC(c3ccc(F)cc3)c3ncccc3C)CC2)cc(OC)c1 (configuration not stated),-17,-0.1%,-3.5,/,-0.1,-27
COc1ccc(N2C(=O)CC(NCc3cccs3)C2=O)cc1 (configuration not stated),3,4.4%,0.6,-3,-0.4,-6
O=C(O)c1cccc(C(=O)O)c1Br,2,-0.2%,-0.7,-7,-0.8,-8
CCN(CC)CC(=O)Nc1sc(C)cc1C(=O)c1ccc(C)cc1,-29,17%,-6.8,6,0.8,-33
CCN1CCN(c2ccc(S(=O)(=O)N3CCOCC3)cc2NC(=O)c2ccc(C)c(C)c2)CC1,4,-1.5%,-0.9,4,-0.2,6
O=C(OCc1ccc(Cl)cc1)c1cccnc1Cl,10,0.3%,1.8,-10,0.1,-11
CCCCc1cc(=O)oc2cc(C)cc(OC(C)C(=O)NCc3cccnc3)c12 (configuration not stated),8,0.9%,-7.1,2,1.3,-11
COc1cccc(C(=O)Nc2nnc(-c3cccs3)o2)c1,-20,0.3%,-2.2,-3,-0.5,-11
CC(CCc1ccco1)NC(=O)CCc1nnc2ccc(NCc3ccc(Cl)cc3)nn12 (configuration not stated),0,-1.2%,-3.4,-14,1.0,-5
COc1ccccc1/C=C/C(=O)Nc1cccnc1Cl,3,-0.1%,0.1,2,1.2,0
CN(C)c1ccnc2sc(C(=O)c3ccc(Br)cc3)c(N)c12,4,-2.3%,1.8,14,2.1,-1
COc1ccc(CCNC(=O)CCCOc2cccc(C)c2C)cc1OC,0,0.7%,-3.6,12,0.9,-11
COc1ccccc1-n1cnnc1SCC(=O)NCC1CCCO1 (configuration not stated),8,2.2%,-4.8,5,1.2,-5
Cn1c(CCN2CCCCC2)nc2cc(NS(=O)(=O)c3ccc(F)cc3)ccc21,0,-3.3%,-4.1,-14,1.5,-46
COc1cc(C(=O)N2CC(=O)Nc3ccccc32)cc(OC)c1OC,0,6.7%,-3.1,2,-0.6,-6
O=C1c2cccc3cccc(c23)C(=O)N1OS(=O)(=O)c1ccc(Cl)cc1,-22,4.2%,-2.7,0,0.2,-2
CC(=O)NNC(=O)c1csc(Cc2c(Cl)sc3ccc(Cl)cc23)n1,-6,-3.9%,-1.0,13,1.6,1
COc1ccc(-c2sc3cc4c(cc3c2C#Cc2cncn2C)OCO4)cc1,-3,0.5%,-7.5,-10,0.2,-21
SMILES,Six1-Eya2 inh,PINK1 modulator,D2 ag,TRPML1 inh,TRPML1 agonist,D2 PAM
O=C(NCc1ccc(F)cc1)C1CC(=O)N(C2CCCC2)C1 (configuration not stated),0,0.8%,-5.0,20,-0.1,-18
CC1CCCN(C(=O)C2CCN(C(=O)Nc3ccccc3)CC2)C1 (configuration not stated),5,-1.2%,-5.6,6,-0.2,-1
Cc1ccc(S(=O)(=O)N2CCC(C(=O)NCC3CC3)CC2)cc1,1,0.8%,3.4,6,-0.5,1
Cc1cc(C)c(OCCCNC2CCCC2)c(Br)c1,7,2.7%,-5.5,2,0.5,-28
CC1CCN(c2ccc(NC(=O)c3cccnc3)cc2)CC1,-8,-0.9%,0.0,6,0.1,-5
CCn1c(CNC(=O)C23CC4CC(CC(C4)C2)C3)nnc1SC,-11,-0.9%,2.8,0,0.7,-3
CCN(C(=O)COC(=O)/C(=C/c1ccccc1)n1nnnc1C)C1CCCCC1,0,13%,-4.2,10,-0.1,-15
COc1ccc(S(=O)(=O)N2CCCCC2c2cc(C(=O)Nc3ccc4c(c3)OCO4)no2)cc1 (configuration not stated),-15,-0.4%,9.1,/,-0.3,-3
COc1ccccc1C(=O)NS(=O)(=O)c1ccc(C)cc1,0,2.3%,-2.8,-9,-0.4,-6
CC1CC(C)CN(C(=O)c2ccc3c(c2NCCO)C(=O)c2ccccc2C3=O)C1 (configuration not stated),-70*,2.3%,-3.2,2,0.0,-6
CC(C)(C)CN1CCC(n2nccc2NC(=O)c2ccccc2Cl)CC1,2,0.1%,-1.7,-4,-0.4,5
Cc1cc2c(C)nc3ccccc3c2o1,4,0.9%,0.0,45,0.5,-7
O=C(NNC(=O)C1CCN(S(=O)(=O)c2ccc(Cl)cc2)CC1)c1ccccc1,2,9.2%,0.3,7,1.4,-30
C=CCN1C(=O)[C@]2(c3ccccc31)C1CCCC=C1C(C#N)=C(N)C2(C#N)C#N (some centres not stated),-27,0.4%[38.3 µM],-0.5,-6,-0.2,16
COC(=O)C1=C(C)N(Cc2ccccc2)C(=NCc2ccc3c(c2)OCO3)N[C@H]1c1ccccc1,-4,-0.8%,0.0,-17,-0.4,-11
CCOC(=O)C1=CC[C@H]2c3c(c4ccccc4n3C)C(=O)C1N2C,3,1.2%,-0.1,-20,-0.1,-3
CCN(C(=O)CCNC(=O)Cn1cnc2ccccc2c1=O)c1cc(OC)ccc1OC,/,1.6%,/,-14,-0.3,/
O=C(CSc1nc2sc3c(c2c(=O)n1-c1ccccc1)CCCC3)NCc1ccco1,8,11%,1.9,9,0.4,-6

# Arranged by the number under D2 ag (rising): some entries from above
Molecule	D2 ag
Cc1cc(C)c(OCCCNC2CCCC2)c(Br)c1	-5.5
CCN(C(=O)COC(=O)/C(=C/c1ccccc1)n1nnnc1C)C1CCCCC1	-4.2
CC1CCN(c2ccc(NC(=O)c3cccnc3)cc2)CC1	0.0
